miR-21 FLuc: raises the signal of a miR-21 reporter. HeLa miR-21 FLuc reporter, luciferase, 48 h. Potency, µM (top dose mostly 38.3 µM), for inactives: at the top dose reporter change, positive = more light. 340,000 tested, under 10 active. AID 2288; active = well fitted rising curve with a large enough effect; inconclusive = small, poorly fitted or top-dose-only effect; inactive = no such curve, though single readings can be large or run the other way;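 note: % of control where 0% means no effect; miR-21 action dims this reporter so a rising signal means less miR-21 action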
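Using DMEM plus 10% FBS, HeLa miR-21-FLuc cells are incubated with test compounds (final up to about 40uM) for 48 hours; firefly luciferase signal is then imaged following reagent-mediated lysis.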
Starred values were filed as active, the others as inactive; ? = inconclusive; & = joins results of further samples. A portion of the library. The share of hits here may be higher or lower than overall.

SMILES	miR-21 FLuc
CCOCCc1nn2c(=O)cc(COC(=O)c3ccc(NC(=O)c4cccs4)cc3)nc2s1	-7%
CC1CCN(c2oc(/C=C/c3ccc(F)cc3)nc2C#N)CC1	1%
CCOC(=O)c1cnc2ccc(OCC)cc2c1N1CCN(c2cccc(Cl)c2)CC1	-4%
CCOc1ccc(CCNC(=O)Cn2ncn3c(cc4sc(C)cc43)c2=O)cc1OCC	-7%
Cc1ccccc1C(=O)Nc1ccccc1OCc1cc(=O)n2ccccc2n1	5%
CC(=O)N1CCc2cc(CNS(=O)(=O)c3ccc(C(C)(C)C)cc3)ccc21	1%
COc1ccc(OC)c(CNC(=O)c2nn(C)c3c2CSc2ccccc2-3)c1	9%
Cc1ccc(C)c(CNC(=O)c2ccc3c(c2)nc2n3CCCCC2)c1	-10%
COc1ccc(CNc2nc3c(S(=O)(=O)c4ccccc4)nnn3c3ccc(Cl)cc23)cc1	2%
CCN1C(=NCCN2CCOCC2)N[C@@H](CCc2ccccc2)C(C(=O)OC)=C1C	13%&0%
COc1ccc(CNS(=O)(=O)c2cc3c(cc2Cl)N(C(C)=O)CCO3)cc1	-9%
CCOc1cc(C2c3c(-c4ccc(Br)cc4)n[nH]c3C(=O)N2c2ccc(Cl)cc2)ccc1O (stereo not given)	?
Cc1cc(OCC(=O)Nc2ncn[nH]2)c(C)c(C)c1Br	-3%
O=C(NCc1ccccc1Cl)c1ccc(NC(=O)N2CCSc3ncccc32)cc1	1%
Cc1cccc(Cn2c(CN3CCC(C(=O)NC(C)C)CC3)cc3ccccc32)c1	29%

Brought forward from above: six compounds, then new ones.
SMILES	miR-21 FLuc
CCN1C(=NCCN2CCOCC2)N[C@@H](CCc2ccccc2)C(C(=O)OC)=C1C	13%&0%
COc1ccc(CNS(=O)(=O)c2cc3c(cc2Cl)N(C(C)=O)CCO3)cc1	-9%
CCOc1cc(C2c3c(-c4ccc(Br)cc4)n[nH]c3C(=O)N2c2ccc(Cl)cc2)ccc1O (stereo not given)	?
Cc1cc(OCC(=O)Nc2ncn[nH]2)c(C)c(C)c1Br	-3%
O=C(NCc1ccccc1Cl)c1ccc(NC(=O)N2CCSc3ncccc32)cc1	1%
Cc1cccc(Cn2c(CN3CCC(C(=O)NC(C)C)CC3)cc3ccccc32)c1	29%
O=C(NCCCN1CCN(c2ccccc2)CC1)c1ccc2nc(Cc3ccccc3)oc2c1	18%
Cc1nnc(N2CCCC(C(=O)NCCN(C)C)C2)c2nn(-c3ccccc3)c(C)c12 (stereo not given)	-3%
CCOc1ccc(CC(=O)NCCS(=O)(=O)N2CCN(c3ccccc3OC)CC2)cc1	15%
COc1ccc(Nc2nc(-c3cccc(Cl)c3)c3c(n2)-c2ccccc2OC3)cc1	-3%
Nc1c(-c2nc(-c3ccc(F)cc3)cs2)c2ccccn2c1C(=O)c1ccc2c(c1)OCO2	-1%
COc1cc(Cl)c(C)cc1NC(=O)Cn1cc(S(=O)(=O)N2CCN(c3ccccc3F)CC2)c2ccccc2c1=O	-1%
COc1ccccc1-c1noc(-c2ccc(NC3CCCCC3)c([N+](=O)[O-])c2)n1	-13%
CC(=O)OCc1cnc(C)c2oc(=O)c(C(=O)Nc3ccc(C)cc3Cl)cc12	-1%
CCOC(=O)C1(C)C=C(Nc2ccc(C(=O)O)cc2)C(=O)N1c1ccc(C(=O)O)cc1 (stereo not given)	0%
O=C1N(Cc2ccccc2)c2ccccc2C1(O)c1c[nH]c2ccccc12 (stereo not given)	12%
COC(=O)c1sccc1S(=O)(=O)N(CC(=O)Nc1ccccc1)c1ccccc1	-2%
CCOC(=O)c1ccc(N2C(=O)c3n[nH]c(-c4ccco4)c3C2c2ccc(OCC)cc2)cc1 (stereo not given)	?
CCCn1c2ccc(F)cc2c2nnc(SCCN(CC)CC)nc21	-9%
Cc1nc2ccn(Cc3ccco3)c(=O)c2cc1C(=O)NCc1ccc(F)cc1	16%
C=CCC(CC=C)(CNC(=O)C(=O)Nc1cc(C)ccc1OC)c1ccc(OC)c(OC)c1	?

New compounds follow.
SMILES	miR-21 FLuc
O=C(c1ccc(F)cc1)n1nc(-c2ccc(Cl)cc2)nc1NCc1ccco1	-23%
O=C(c1ccccc1)N(Cc1ccco1)Cc1cccs1	3%
CCOC(=O)c1ccc(Nc2c(-c3cccc(O)c3)nc3nc[nH]n23)cc1	-20%
COc1cc(NC(=O)CC2C(=O)N(c3cccc(C)c3)C(=O)N2Cc2ccco2)cc(OC)c1 (stereo not given)	19%
CCc1ccccc1NC(=O)CSCc1cnn(-c2ccccc2)c1-n1cccc1	22%
Cc1ccc(OCC(=O)OCc2cc(=O)n3ccsc3n2)cc1C	-14%
Cc1cccc(N2C(=O)C(CC(=O)Nc3cccc(F)c3)N(Cc3cccs3)C2=O)c1 (stereo not given)	?
CCc1cccc(C)c1NC(=O)NC1COc2ccccc2C1 (stereo not given)	?
O=C(Nc1cc(C(F)(F)F)ccc1Cl)c1cc(S(=O)(=O)NCc2ccccc2)ccc1F	3%
COc1ccc(CNC(=O)CCCN2C(=O)COc3ccc(C)cc32)cc1	-6%
Cc1cc(-c2ccccc2)nc2cc(C(=O)Nc3cc(C(F)(F)F)ccc3Cl)nn12	1%
O=C(c1cccc(Cl)c1)N1CCC(c2nc3ccccc3o2)CC1	-4%
CCN(C(=O)CSc1nc(-c2ccccc2)no1)c1cccc(C)c1	27%
CCN(CCCNC(=O)c1nn(-c2ccc(OC)c(Cl)c2)c(=O)c2c1c1ccccc1n2C)c1ccccc1	0%
CC(C)(C)c1ccc(S(=O)(=O)NCc2nc3cccnc3n2Cc2ccccc2Cl)cc1	14%

Next part
SMILES	miR-21 FLuc
Cc1ccc(CNc2ccc3cc(S(=O)(=O)N4CCCCC4)ccc3n2)cc1	23%
Cc1c2cnn(CC(=O)NC(C)C)c(=O)c2c(C)n1Cc1ccccc1Cl	-43%
CN(C(=O)c1cc2nc(-c3ccc4c(c3)OCO4)cc(C(F)(F)F)n2n1)c1ccc(OC(F)(F)F)cc1	-6%
CCOC(=O)c1ccc(NC(=O)CN2C(=O)c3cccnc3Sc3ccccc32)cc1	-20%
CCOc1ccc(CCNC(=O)c2cnc3c(-c4ccc(F)cc4)c(C)nn3c2C)cc1OCC	-5%
Cc1ccc(CNC(=O)Cn2c(-c3cccs3)cc3cc(Cl)ccc32)cc1	-3%
CC(C)(C)c1ccc(C(=O)NC2(C(F)(F)F)C(=O)Nc3c2c(=O)[nH]c(=O)n3-c2ccccc2)cc1 (stereo not given)	-1%
COc1ccc(NC(=O)CSC2=Nc3ccccc3C3=NC(CC(=O)NCc4ccc(F)cc4)C(=O)N23)cc1 (stereo not given)	-9%
CC(C(=O)NCc1ccccc1)n1ccc2cc(S(=O)(=O)N3CCCC3)ccc21 (stereo not given)	0%
Cn1c(=O)cc(OCC(=O)N2CCN(c3ccccc3)CC2)c2ccccc21	2%
Cc1ccc(CN2CCCn3nc(C(=O)NCc4ccc(N(C)C)cc4)cc3C2=O)cc1	11%
O=C(Nc1ccc(Br)cc1F)N1CCC2(CC1)Oc1ccccc1C(=O)N2Cc1ccccc1F	6%
COc1ccc(CC2C(=O)Nc3ccc(Br)cc32)cc1OC (stereo not given)	-18%
Cc1cccc(N2C(=O)CSC23C(=O)N(CC(=O)NCc2ccccc2Cl)c2ccccc23)c1 (stereo not given)	20%
COc1ccc(N2CCN(C(c3ccccc3)c3sc4nc(-c5ccco5)nn4c3O)CC2)cc1 (stereo not given)	29%

Additional compounds follow.
SMILES	miR-21 FLuc
CC(=O)Nc1cc(C(=O)NCc2ccc(F)cc2Cl)ccc1Sc1ccc(Cl)cc1	14%
CC(C)c1ccc(NC(=O)C2CCCN(S(=O)(=O)c3ccc4[nH]c(=O)oc4c3)C2)cc1 (stereo not given)	-17%
Cc1cccc(-c2nc3c4ccccc4nc(NCCc4ccccc4)n3n2)c1	-31%
COc1ccc(CCNC(=O)CCc2c(C)c3cc4c(C)c(C)oc4cc3oc2=O)cc1OC	-1%
CCCc1cc(=O)[nH]c(SCc2nc(-c3ccc(OC)cc3)no2)n1	4%
COc1cc(CNCCSc2nnnn2C)ccc1OCc1ccccc1	-33%
COc1ccc(-c2c(C)nn3c(C(F)(F)F)cc(-c4ccccc4)nc23)cc1	-4%
COC(=O)c1ccc2nc(C)cc(Nc3cccc(Cl)c3C)c2c1	3%
O=C(CSc1nc2c(oc3ccccc32)c(=O)n1Cc1ccco1)Nc1ccccc1	-2%
CCCCn1cc(S(=O)(=O)c2ccc(F)cc2)c(=O)c2ccccc21	0%
COC(=O)Cc1c(C)c2ccc3c(c2oc1=O)CN(Cc1ccccc1Cl)CO3	0%
COc1ccc(-c2cc(C)no2)cc1S(=O)(=O)N1CCc2ccccc21	6%
CCOC(=O)C1CCCN(C(=O)C2CCN(c3nnc(C)c4c(C)n(-c5ccccc5)nc34)CC2)C1 (stereo not given)	-1%
CCOc1ccc(NC(=O)CN2C(=O)C3(SCC(=O)N3c3ccc(F)cc3)c3ccccc32)cc1 (stereo not given)	7%
C#CCOc1ccc(C2C(C(=O)OC)=C(C)NC3=C2C(=O)c2ccccc23)cc1OCC (stereo not given)	-6%

Five compounds out of the list, sorted by molar mass, rising.
SMILES	miR-21 FLuc
CCCc1cc(=O)[nH]c(SCc2nc(-c3ccc(OC)cc3)no2)n1	4%
C#CCOc1ccc(C2C(C(=O)OC)=C(C)NC3=C2C(=O)c2ccccc23)cc1OCC (stereo not given)	-6%
O=C(CSc1nc2c(oc3ccccc32)c(=O)n1Cc1ccco1)Nc1ccccc1	-2%
CC(C)c1ccc(NC(=O)C2CCCN(S(=O)(=O)c3ccc4[nH]c(=O)oc4c3)C2)cc1 (stereo not given)	-17%
CCOC(=O)C1CCCN(C(=O)C2CCN(c3nnc(C)c4c(C)n(-c5ccccc5)nc34)CC2)C1 (stereo not given)	-1%

New compounds follow
SMILES	miR-21 FLuc
Cc1ccc(CNC(=O)CCCN2C(=O)CCn3nc(-c4cn(C)c5ccccc45)cc32)cc1	1%
CCOC(=O)c1cc(-c2ccccc2)n(CCC(=O)NCCc2ccc(OC)c(OC)c2)c1C	5%
Cc1ccc(NC(=O)c2sc3nc(-c4ccc(F)cc4)ccc3c2N)cc1F	-17%
O=C(CS(=O)(=O)c1cccc2nsnc12)N1CCN(c2ccc(F)cc2)CC1	-4%
Cc1ccc2oc(-c3ccc(NC(=O)c4oc5ccc(Cl)cc5c4C)cc3)nc2c1	0%
O=C(Nc1ccc(F)cc1)c1oc2ccccc2c1NC(=O)C1CCCCC1	3%
O=C(CSc1nc2c(c(=O)[nH]1)CCC2)Nc1cc(C(F)(F)F)ccc1Cl	16%
COc1cccc(Cn2c(=O)n(Cc3ccco3)c(=O)c3oc4ccccc4c32)c1	6%
Cc1ccc(NC(=O)CSc2nc3ccc(NC(=O)COc4ccc(C)cc4)cc3s2)cc1	-14%
COc1cc(Cl)c(C)cc1NC(=O)c1sc2nc3n(c(=O)c2c1C)CCCCC3	3%
COc1cc(NC(=O)c2c(C)oc3ncnc(N4CCCCC4)c23)cc(OC)c1	-6%
CCc1ccc(-n2c(SCc3ccccc3F)nc3[nH]ncc3c2=O)cc1	9%
COc1ccc(-c2c(C)nn3c4c(cnc23)C(=O)CC(c2ccc(C)cc2)C4)cc1 (stereo not given)	-4%
NC1=NC(c2cccc(Cl)c2)n2c(nc3ccccc32)N1 (stereo not given)	5%
COc1ccc(Cl)cc1NC(=O)CN(C)S(=O)(=O)c1ccc(Br)s1	-5%

Next part.
SMILES	miR-21 FLuc
Cc1nn(C)c(C)c1S(=O)(=O)N(CC(=O)N1CCN(c2ccccc2)CC1)c1ccc(C(C)C)cc1	-2%
COc1ccc(NC(=O)c2cnc(Nc3ccc(C)c(Cl)c3)c3ccccc23)c(OC)c1	5%
COc1ccc(NC(=O)c2oc3c(c2C)-c2nn(Cc4c(F)cccc4Cl)cc2CC3)c(OC)c1	-8%
Cc1cc(Br)cc(C)c1OCC(=O)Nc1ccc(S(=O)(=O)Nc2ncccn2)cc1	-6%
Cc1cccc(C(=O)N2CCC(N3CCN(Cc4ccc(F)cc4)C(=O)C3=O)CC2)c1	1%
Cc1cccc(NC(=O)NC2COc3ccccc3C2)c1C (stereo not given)	-3%
Cc1ccc(Cl)cc1N1CCN(CCNC(=O)Nc2ccccc2Cl)CC1	-1%
CC(=O)Nc1ccc(NC(=O)C2(c3cccs3)CCOCC2)cc1	-8%
CC(=O)Nc1ccc(-c2nnc3n(CC(C)C)c(=O)c4ccccc4n23)cc1	24%
COC(=O)c1ccc(NC(=O)CSc2nc(C)cc(C)c2C(=O)Nc2ccccc2)cc1	9%
O=C(Nc1cccc(C(F)(F)F)c1)c1cc(S(=O)(=O)N2CCCC2)c[nH]1	-6%
O=C(NCc1ccc(F)cc1)c1c2c(nc3ccccc13)C(=O)N(C1CCCCC1)C2	-1%
Cc1ccc(NS(=O)(=O)c2cc3[nH]c(=O)c(=O)[nH]c3cc2C)cc1N(C)C	-4%
COc1ccccc1NC(=O)CCS(=O)(=O)c1cc2c3c(c1)CCN3C(=O)CC2	0%
Cc1nn(-c2ccc(N3CCCCC3)nn2)c(C)c1CCC(=O)Nc1ccc(F)cc1F	?

Next section.
SMILES	miR-21 FLuc
CC(C)CC(=O)Nc1nnc(SCc2cc(=O)n3ccccc3n2)s1	6%
Cc1c(-c2cccc(NC(=O)Cc3ccccc3)c2)nc2ncccn12	6%
CCOc1ccc(CNCc2c(C(=O)O)n(Cc3ccccc3F)c3cc(OC)ccc23)cc1	22%
Cc1oc(-c2ccccc2F)nc1CSc1nnc(C)n2c1cc1occc12	-2%
Cc1ccc(Cn2c(C)c3cnn(CC(=O)N4CCN(c5cc(C)ccc5C)CC4)c(=O)c3c2C)cc1	?
CC1CCN(c2nn3c(=O)c(C(=O)NC(C)C)cnc3s2)CC1	-7%

Source: PubChem
